VCAM-1 up = boosters of cytokine-driven VCAM-1 levels – cell-based, plate reader, pooled HUVEC, TNFa stimulus (AID 455); 10,000 tested, 0.2% active; augmentation, % at 5 µM; HUVEC TNFa-induced VCAM-1 immunofluorescence, plate reader; numbers were filed only for top-ranked candidate wells;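 active = a compound raising TNF-alpha-driven VCAM-1 surface staining, with its hit status upheld on visual or statistical review; inactive = the rest, including hits rejected on review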;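 also: 0% = TNFa with vehicle and 100% = strongest image-checked hit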
Proteasome disasm = blocks ATP-dependent breakdown of the yeast 26S proteasome; anti-FLAG beads, GFP-proteasome disassembly, flow cytometry; inhibition of disassembly, % (concentration not given with the values); 24,000 tested, 0.2% active;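 active = above 40%; inconclusive = likely self-fluorescent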;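 also: plate controls were ATP control with full disassembly for no effect and ATP-gamma-S intact proteasomes for full effect; higher percent means more bead fluorescence retained so stronger block of disassembly; stock transfer was 100 nL into about 10 µL; wells with too few beads may also be inconclusive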
Active calls of the source: *; i = inactive; ? = inconclusive; nt = no result given. This is a subset. The share of hits here may be higher or lower than overall.

SMILES	VCAM-1 up	Proteasome disasm
CCOC(=O)N1CCN(C(=O)c2cc3c(=O)[nH]c4ccccc4c3s2)CC1	nt	?
Cn1c(=O)c2c3c(sc2n2c(SCC(=O)c4ccc(Cl)cc4)nnc12)COC(C)(C)C3	i	-3.2
O=C(CC1Oc2ccccc2NC1=O)NCCc1ccccc1 (stereo not given)	nt	1.8
COc1ccc(-c2nnc(SCC(=O)Nc3sc4c(c3C#N)CCC4)n2CC2CCCO2)cc1 (stereo not given)	i	-5.2
CCn1c(SCC(=O)c2ccc3c(c2)OCCO3)nnc1-c1ccco1	i	0.7
O=C(Cn1c(=O)n(-c2ccc(F)cc2)c(=O)c2sccc21)N1CCCC1	nt	-2.5
c1ccc(-c2oc3ncnc(NCCCn4ccnc4)c3c2-c2ccccc2)cc1	nt	-1.7
CCc1ccccc1S(=O)(=O)Cc1ccc(C(=O)NCc2ccc3c(c2)OCO3)o1	nt	?
CCOC(=O)c1c(CN2CCCCC2)n(C)c2cc(Br)c(O)c(CN(C)C)c12	nt	-2.3
COc1ccc(C(C)(C)C)cc1NC(=O)Nc1ccc2c(c1)OCO2	i	0.0
O=C(CN(Cc1ccc(F)cc1)C(=O)Cn1nnc2ccccc21)NCC1CCCO1 (stereo not given)	i	0.5
O=C(O)CCCc1ccccc1	i	1.1
Cc1noc(C)c1S(=O)(=O)N1CCC(C(=O)N2CCN(Cc3ccc4c(c3)OCO4)CC2)CC1	i	2.8
O=S(=O)(c1cccc2nsnc12)N1CCc2ccccc2C1	nt	0.6
O=C1CN(c2ccccc2F)C(=O)CN1c1ccccc1F	i	1.0
O=C(NC1CCCCCC1)C1c2ccccc2C(=O)N1Cc1cccnc1 (stereo not given)	i	2.3
Cc1ccccc1-c1nc(CN2CCC(C(=O)NC3CCN(Cc4ccccc4)CC3)CC2)c(C)o1	i	8.2
CCCOc1ccc(OC(=O)c2ccc(Br)o2)cc1	nt	0.5
CC(=O)OCC(=O)[C@@]1(O)[C@H](C)C[C@H]2[C@@H]3CCC4=CC(=O)C=C[C@]4(C)[C@@]3(F)[C@@H](O)C[C@@]21C	i	-0.1
O=C1N(c2ccccc2)C2CS(=O)(=O)CC2N1c1ccc(Br)cc1 (stereo not given)	i	-2.9
COC(=O)c1ccc2c(c1)N(C)CCS2	nt	1.7
CC1(C)CC(=O)C2=C(C1)NC(=O)CC2C(=O)NCc1ccc(F)cc1 (stereo not given)	i	-3.7
Cn1c(=O)c2c(nc(SCC(=O)N3CCCc4ccccc43)n2C)n(C)c1=O	i	3.5
O=C(O)c1ccccc1S(=O)(=O)NCC(O)COc1ccc(Br)cc1 (stereo not given)	i	-4.3
O=C(CSc1nccn1-c1ccccc1)NCc1ccc2c(c1)OCO2	nt	0.8
O=C(Nc1ccc2c(c1)OCO2)C(c1ccc(Cl)cc1)N1CCN(C(=O)c2ccco2)CC1 (stereo not given)	i	1.6
CCCCOC(=O)C1=C(C)Nc2ncnn2C1c1cc(OC)ccc1OC (stereo not given)	nt	-1.2
CCN1CCCC1CNC(=O)C1CCN(Cc2nc(-c3cccc(Br)c3)oc2C)CC1 (stereo not given)	nt	3.9
COC(=O)c1ccc(CSc2nc(C(F)(F)F)c3c(c2C#N)CCC3)o1	nt	6.4
CN(CCCNC(=O)c1cn(C)c2ccc(S(=O)(=O)N(C)C)cc2c1=O)c1ccccc1	i	0.3
COc1ccc(C2=NOC(C(=O)N3CCCCCC3)C2)cc1OC (stereo not given)	nt	-8.2
S=c1sc2c(N3CCOCC3)ncnc2n1-c1ccccc1	nt	1.1
C=CCOC(=O)C1=C(C)NC(=O)NC1c1cn(-c2ccccc2)nc1-c1cccs1 (stereo not given)	i	25
O=C(O)[C@@H](c1ccccc1)N1Cc2ccccc2C1=O	nt	-2.5
Cc1noc(C)c1CSc1ccccc1C(=O)N1CCN(c2ccccc2)CC1	i	-0.2
Cn1cccc1Cc1nnc(SCC(=O)Nc2ccc(F)cc2)n1-c1ccc(F)cc1	i	2.9
COCCCNC(=O)CS(=O)(=O)Cc1nc(-c2ccccc2C)oc1C	nt	1.1
CCOC(=O)C1CCCN(C(=O)c2cn(CC)c3ccc(S(=O)(=O)N4CCCC4)cc3c2=O)C1 (stereo not given)	nt	-0.6
Cc1c(C(=O)NCc2ccoc2)oc2ccc3c(c12)C(=O)CC(C)(C)O3	i	-0.7
CC(C)NC(=O)Nc1cccs1	i	-0.3

Of the compounds above, these have bromine:
SMILES	VCAM-1 up	Proteasome disasm
CCOC(=O)c1c(CN2CCCCC2)n(C)c2cc(Br)c(O)c(CN(C)C)c12	nt	-2.3
CCCOc1ccc(OC(=O)c2ccc(Br)o2)cc1	nt	0.5
O=C1N(c2ccccc2)C2CS(=O)(=O)CC2N1c1ccc(Br)cc1 (stereo not given)	i	-2.9
O=C(O)c1ccccc1S(=O)(=O)NCC(O)COc1ccc(Br)cc1 (stereo not given)	i	-4.3
CCN1CCCC1CNC(=O)C1CCN(Cc2nc(-c3cccc(Br)c3)oc2C)CC1 (stereo not given)	nt	3.9

Single records, as listed above. Order of values: VCAM-1 up | Proteasome disasm
O=C(O)[C@@H](c1ccccc1)N1Cc2ccccc2C1=O in the list: nt | -2.5
COCCCNC(=O)CS(=O)(=O)Cc1nc(-c2ccccc2C)oc1C in the list: nt | 1.1
Cc1noc(C)c1CSc1ccccc1C(=O)N1CCN(c2ccccc2)CC1 in the list: i | -0.2
C=CCOC(=O)C1=C(C)NC(=O)NC1c1cn(-c2ccccc2)nc1-c1cccs1 (stereo not given) in the list: i | 25
Cc1c(C(=O)NCc2ccoc2)oc2ccc3c(c12)C(=O)CC(C)(C)O3 in the list: i | -0.7

Additional compounds follow.
SMILES	VCAM-1 up	Proteasome disasm
Cc1ccc(-n2c(=O)cc(N3CCC(C)CC3)[nH]c2=O)cc1	nt	0.9
Nc1ccccc1OCCOCCOc1ccccc1N	nt	-1.7
CCOC(=O)C(CC)n1cnc2c(nnn2-c2ccc(OC)cc2)c1=O (stereo not given)	nt	-1.9
CN(C)CCCN1C(=O)CSC1c1ccccc1 (stereo not given)	i	-0.8
O=C(c1ccco1)N1CCN(CC(=O)N(C2CCCCC2)C2CCS(=O)(=O)C2)CC1 (stereo not given)	i	-0.4
c1ccc(CC2CCN(c3nc4ccccc4n4nnnc34)CC2)cc1	i	0.4
CC1=C(C(N)=O)C(c2ccc(Cl)cc2Cl)n2ncnc2N1 (stereo not given)	i	-2.7
O=C(Nc1ccc(O)cc1)C1CCCN1S(=O)(=O)c1ccc(F)cc1 (stereo not given)	i	-0.1
Cc1occc1-c1nnc(SCC(=O)NCC2CCCO2)n1C (stereo not given)	i	-1.8
Cc1nccn1CCc1n[nH]c(=S)n1Cc1ccccc1	nt	0.3
CCCCn1c(=S)[nH]c2c(oc3ccc(Cl)cc32)c1=O	nt	-0.1
c1ccc2c(c1)CCN(c1nc3ccccc3n3cnnc13)C2	nt	-1.0
COc1ccc(S(=O)(=O)Nc2cc(C(=O)NCCC(C)C)ccc2N2CCOCC2)cc1	nt	1.7
CCc1nnc(NC(=O)CSc2nnc3ncccn23)s1	i	4.2
CC(=O)NCCC(=O)Nc1ccc(C)c(F)c1	i	-4.0
N#C/C(C(=O)NCc1ccco1)=C1/SC(Cc2ccc(F)cc2)C(=O)N1c1ccccc1 (stereo not given)	i	2.9
Cc1cc(NC(=O)c2noc3c2CCc2ccccc2-3)no1	nt	0.0
O=C(O)CCCC(=O)N1CCN(c2nc(-c3ccccc3)c3ccccc3n2)CC1	nt	1.2
CCC[C@@H]1C[C@@H](C(=O)N[C@H]([C@@H](C)O)[C@H]2O[C@H](SC)[C@H](O)[C@@H](O)C2O)N(C)C1 (stereo not given in full)	i	1.4
CC1CCc2nn(CC(=O)Nc3ccc(F)cc3F)cc2C1 (stereo not given)	i	-0.3
CCOc1ccccc1C(=O)N1CCN=C1SC	nt	-0.2
O=C(CN1CCN(S(=O)(=O)c2ccc(F)cc2)CC1)Nc1ccc2c(c1)OCCO2	nt	-0.5
Cc1noc(C)c1S(=O)(=O)Nc1ccc(C(=O)N2CCN(c3ccc(Cl)cc3)CC2)cc1	nt	-0.1
CCOC(=O)CSc1nc2ccccc2c(=O)n1CC1COc2ccccc2O1 (stereo not given)	nt	0.7
C=C1Cn2c(nnc2-c2ccc(Cl)cc2)S1	nt	-0.8
CC(Oc1ccccc1)C(=O)NC1CCN(Cc2ccccc2)CC1 (stereo not given)	i	2.9
Cc1cccc(CS(=O)(=O)Cc2ccc(C(=O)O)o2)c1	nt	-0.1
Cc1ccc(N(C(=O)C2CCC(=O)N2)C2(C(=O)NC3CCCCC3)CCCCC2)cc1 (stereo not given)	i	1.3
Cc1c(C(=O)O)oc2ccc(S(=O)(=O)N3CCCCC3C(=O)O)cc12 (stereo not given)	nt	-1.2
O=C(c1cnc2sccn2c1=O)N1CCc2ccccc2C1	i	3.7
O=C(Nc1ccc(Cc2ccncc2)cc1)c1ccc(S(=O)(=O)N2CCOCC2)cc1	nt	0.3
COc1ccc(N2CCN(C(=O)CSc3nnc(Cn4nnc5ccccc54)n3C)CC2)cc1	i	1.2
COC(=O)C(C)Sc1nc(-c2ccc(OC)cc2)nc2c1c(=O)n(C)c(=O)n2C (stereo not given)	nt	-1.0
O=C(CCc1nc2ccccc2[nH]1)N1CCN(C(=O)c2ccco2)CC1	nt	-2.2
COC(=O)c1cc(OC)c(OC)cc1NC(=O)CCC1CCCC1	i	-2.7
Cc1ccc(CNC(=O)CCNS(=O)(=O)c2ccc3c(c2)c(=O)n(C)c(=O)n3C)cc1	nt	1.4
CCOC(=O)C1CCN(C(=O)c2ccc(Cl)c(NC3=NC4CS(=O)(=O)CC4S3)c2)CC1 (stereo not given)	nt	-0.3
CCCCCn1c(CN(C)Cc2ccccc2)nc2c1c(=O)n(C)c(=O)n2C	i	0.8
CCOC(=O)C1CCN(S(=O)(=O)c2ccc3[nH]c(=O)oc3c2)CC1	nt	1.4
CCCCC(=O)Nc1nn(CCC)c2nc3ccccc3cc12	i	-3.0
CN(C(=O)COc1cccc(Br)c1)C1CCS(=O)(=O)C1 (stereo not given)	nt	0.9
O=C(Nc1ccc2c(c1)OCCO2)C1CCN(S(=O)(=O)c2ccc(Br)s2)CC1	nt	-0.9
Cc1nn(C)cc1NC(=O)CCSc1nc(-c2ccco2)cc(C(F)(F)F)n1	i	0.5
Cc1cccc(C)c1OCc1nnc2c3cnn(C)c3ncn12	i	1.8
COc1cccc(NC2SC(=O)N(c3ccccc3)C2=O)c1 (stereo not given)	nt	1.0
Cc1cc(C)cc(NC(=O)N2CCC(c3nc4ccccc4o3)CC2)c1	i	3.0
COc1ccc(Nc2nc(-c3sc(N)nc3C)cs2)cc1	i	-9.1
COc1ccc(S(=O)(=O)C(C#N)c2nc3ccccc3nc2N2CCCC(C)C2)cc1 (stereo not given)	i	-3.0
CCOC(=O)c1ccc(N2C(=O)C3ON(c4ccccc4)C(c4ccco4)C3C2=O)cc1 (stereo not given)	nt	3.5
COc1ccccc1Cn1c(-c2ccco2)nc2nc3ccccc3nc21	i	6.1

The listing continues.
SMILES	VCAM-1 up	Proteasome disasm
CC(=O)N1CCc2cc(S(=O)(=O)NC(C(=O)NCc3ccccc3)C(C)C)ccc21 (stereo not given)	i	-0.3
Cc1ccc(-c2nc3cnccn3c2Nc2ccc3c(c2)OCCO3)o1	nt	0.6
COc1ccccc1Cn1c(=O)[nH]c2cccnc21	nt	-3.4
N#Cc1c(C(F)(F)F)cc(-c2ccccc2)nc1SCc1nc(N)nc(N2CCOCC2)n1	nt	36
Cc1nc2ccccc2n1-c1nc(-c2ccco2)cc(C(F)(F)F)n1	nt	5.0
COCCNc1nc(=S)[nH]c2cc(OC)c(OC)cc12	nt	1.1
CCCCOC(=O)C1=C(C)Nc2ncnn2C1c1cc(OC)c(OC)cc1OC (stereo not given)	nt	-1.0
Oc1ccc2ccccc2c1CN1CCN(c2ccccc2F)CC1	i	0.5
COc1ccc2nc(NC(=O)c3ccoc3C)sc2c1	i	-0.9
Cc1ccc(CNC(=O)CNS(=O)(=O)c2cccc3nsnc23)cc1	nt	-1.9
COc1ccc(N(CC(=O)N2CCc3ccccc3C2)S(=O)(=O)c2c(C)nn(C)c2C)cc1	nt	-0.5
Cc1ccc2oc(=O)c3cnn(CC(=O)NC4CCC(C)CC4)c3c2c1 (stereo not given)	nt	-1.9
CCOc1ccc(C2N(c3cc(Cl)ccc3OC)C(=O)C3CCCN32)cc1OC (stereo not given)	nt	1.1
C[C@]12CC[C@@H]3c4ccc(OS(=O)(=O)O)cc4CC[C@H]3[C@@H]1CCC2=O	i	0.9
COc1ccc(Cl)cc1N1C(=O)C2CCCN2C1c1cccc(F)c1 (stereo not given)	nt	2.5
c1c2c(cc3sc(N4CCOCC4)nc13)OCCO2	nt	-1.7
COc1ccc(-n2c(Cc3cccn3C)nnc2SCC(=O)Nc2nccs2)cc1	nt	-1.3
O=C(Cn1c(=O)oc2cc(S(=O)(=O)NCc3ccccc3)ccc21)NCc1ccco1	nt	-0.4
CC(=N\O)/C(CN(C)C)=N/O	i	-1.1
CCCCN(C)CCCNC(=O)CCn1nc(-c2ccccc2)ccc1=O	nt	1.6
Cc1ccc(C)c(N2CCN(CCCNC(=O)Cn3cc4c(n3)CCC(C)C4)CC2)c1 (stereo not given)	i	0.0
O=C(NCC1CCCO1)C1CCN(S(=O)(=O)N2CCCC2)CC1 (stereo not given)	nt	0.1
CC(C)(C)C(=O)N=C1SC2CS(=O)(=O)CC2N1c1ccc2c(c1)OCO2 (stereo not given)	i	-2.4

A different layout for two compounds above:
Molecule,VCAM-1 up,Proteasome disasm
C[C@]12CC[C@@H]3c4ccc(OS(=O)(=O)O)cc4CC[C@H]3[C@@H]1CCC2=O,i,0.9
CC(C)(C)C(=O)N=C1SC2CS(=O)(=O)CC2N1c1ccc2c(c1)OCO2 (stereo not given),i,-2.4

High-throughput results: PubChem BioAssay, several laboratories
